Compound activity from PubChem.
Vaccinia inh = blocks a specific stage of Vaccinia orthopoxvirus infection; actives 0.01% (n = 89,000); activity change (mCherry), % (no concentration beside the values); AID 1053133; Vaccinia-infected cells, mCherry/Venus stage reporter fluorescence; hits give low values; some inactives read as strong as hits;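 active = mCherry past -33% and 40 or more points under the early reporter, replicates agreeing; inconclusive = past -33% without that gap or agreement; tested in A549 cells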;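 also: scaled between vehicle wells and reference inhibitor wells; 23 nL library stock went into each well; one replicate is shown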
Vaccinia inh Venus = recorded beside Vaccinia inh, whose call it bears; activity change (Venus), %; measured here: Venus reporter, other viral stage;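 negative = less Venus signal; first of two replicates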
An asterisk follows results filed as active; ? = inconclusive; . = no result given.

SMILES	Vaccinia inh	Vaccinia inh Venus
COc1ccc(S(=O)(=O)N(C)C[C@@H]2Oc3ccc(N(C)C)cc3C(=O)N([C@@H](C)CO)C[C@@H]2C)cc1	-10	-15
C/C=C/c1cnc2c(c1)C(=O)N([C@@H](C)CO)C[C@@H](C)[C@@H](CN(C)C(=O)Nc1ccccc1F)O2	0	1
COC(=O)C[C@@H]1CC[C@H]2[C@@H](COC[C@H](O)CN2S(=O)(=O)c2ccccc2OC)O1	-4	-3
CC(=O)Nc1ccc2c(c1)C(=O)N(C)[C@H]1CC[C@@H](CC(=O)NCc3ccccc3)O[C@H]1CO2	8	5
O=C(NCCN1CCCCC1)[C@H]1N[C@H]2c3ccc(-c4ccc(F)cc4)c(=O)n3C[C@H]2[C@@H]1CO	-3	0
C[C@@H]1CN([C@@H](C)CO)C(=O)Cc2cc(NS(=O)(=O)c3cccs3)ccc2O[C@H]1CN(C)S(=O)(=O)c1cn(C)cn1	15	13
CCNC(=O)C[C@H]1CC[C@H]2[C@@H](COc3ccc(NC(=O)c4ccccc4)cc3C(=O)N2C)O1	9	5
Cc1ccc(-c2cnc3c(c2)C(=O)N([C@H](C)CO)C[C@H](C)[C@H](CN(C)C(=O)c2ccc(F)cc2)O3)cc1	7	-3
COc1ccc2c3c(n(C)c2c1)[C@H](CO)N(C(=O)c1ccccn1)CC31CCN(C(=O)Cc2ccccc2)CC1	-21	-32
C[C@@H]1CN([C@H](C)CO)C(=O)c2cccc(NC(=O)c3ccc(-c4nccs4)cc3)c2O[C@@H]1CN(C)Cc1ccc(C(=O)O)cc1	11	12
CO[C@H]1CN(C)C(=O)c2cc(NC(=O)NC(C)C)ccc2OC[C@H](C)N(Cc2ccc(-c3ccccn3)cc2)C[C@@H]1C	?	.
C[C@H](CO)N1C[C@H](C)[C@@H](CN(C)S(=O)(=O)c2cn(C)cn2)Oc2c(NC(=O)c3ccncc3)cccc2C1=O	31	24
Cc1ccc(S(=O)(=O)NC[C@H]2CC[C@H]3[C@H](CN3Cc3cc(-c4ccccc4)on3)O2)cc1	-1	-3
COc1ccc(NC(=O)Nc2ccc3c(c2)C(=O)N([C@@H](C)CO)C[C@H](C)[C@H](CN(C)C(=O)NC(C)C)O3)cc1	22	20
O=C(NCC[C@@H]1CC[C@@H](NC(=O)C2CC2)[C@H](CO)O1)c1cc(Cl)cc(Cl)c1	18	10
Cc1ccc(S(=O)(=O)N(C)C[C@H]2Oc3ccc(NC(=O)CCC(F)(F)F)cc3CC(=O)N([C@@H](C)CO)C[C@@H]2C)cc1	8	5
CCC(=O)N(C)C[C@H]1Oc2ncc(-c3ccc(C#N)cc3)cc2C(=O)N([C@@H](C)CO)C[C@@H]1C	16	5
C[C@@H]1CN([C@@H](C)CO)S(=O)(=O)c2ccc(C3=CCCCC3)cc2O[C@@H]1CN(C)Cc1ccccn1	?	.
C[C@@H]1CCCCO[C@H](CN(C)Cc2ccncc2)[C@@H](C)CN([C@H](C)CO)C(=O)c2cc(NC(=O)NC3CCCCC3)ccc2O1	5	1
O=C(C[C@@H]1C[C@@H]2c3cc(NC(=O)Nc4ccccc4)ccc3O[C@@H]2[C@@H](CO)O1)NCC1CC1	7	10
C[C@H](CO)N1C[C@H](C)[C@H](CN(C)C)OCCCC[C@H](C)Oc2ccc(NC(=O)Nc3cccc4ccccc34)cc2C1=O	-26	-12
C[C@H](CO)N1C[C@H](C)[C@H](CN(C)Cc2ccc(Oc3ccccc3)cc2)Oc2ccc(NC(=O)Cc3ccccc3)cc2CC1=O	?	.
Cc1noc(C)c1NC(=O)NCC[C@@H]1CC[C@@H](NC(=O)c2ccc(F)cc2)[C@@H](CO)O1	-2	5
CN(C)C(=O)C[C@H]1C=C[C@H](NS(=O)(=O)c2ccccc2)[C@@H](CO)O1	-1	0

An excerpt taken from the entries so far:
SMILES	Vaccinia inh	Vaccinia inh Venus
Cc1ccc(S(=O)(=O)NC[C@H]2CC[C@H]3[C@H](CN3Cc3cc(-c4ccccc4)on3)O2)cc1	-1	-3
COc1ccc(NC(=O)Nc2ccc3c(c2)C(=O)N([C@@H](C)CO)C[C@H](C)[C@H](CN(C)C(=O)NC(C)C)O3)cc1	22	20
O=C(NCC[C@@H]1CC[C@@H](NC(=O)C2CC2)[C@H](CO)O1)c1cc(Cl)cc(Cl)c1	18	10
Cc1ccc(S(=O)(=O)N(C)C[C@H]2Oc3ccc(NC(=O)CCC(F)(F)F)cc3CC(=O)N([C@@H](C)CO)C[C@@H]2C)cc1	8	5
CCC(=O)N(C)C[C@H]1Oc2ncc(-c3ccc(C#N)cc3)cc2C(=O)N([C@@H](C)CO)C[C@@H]1C	16	5
C[C@@H]1CN([C@@H](C)CO)S(=O)(=O)c2ccc(C3=CCCCC3)cc2O[C@@H]1CN(C)Cc1ccccn1	?	.

Among those listed so far, 4 have an aryl methoxy group.
SMILES	Vaccinia inh	Vaccinia inh Venus
COc1ccc(S(=O)(=O)N(C)C[C@@H]2Oc3ccc(N(C)C)cc3C(=O)N([C@@H](C)CO)C[C@@H]2C)cc1	-10	-15
COC(=O)C[C@@H]1CC[C@H]2[C@@H](COC[C@H](O)CN2S(=O)(=O)c2ccccc2OC)O1	-4	-3
COc1ccc2c3c(n(C)c2c1)[C@H](CO)N(C(=O)c1ccccn1)CC31CCN(C(=O)Cc2ccccc2)CC1	-21	-32
COc1ccc(NC(=O)Nc2ccc3c(c2)C(=O)N([C@@H](C)CO)C[C@H](C)[C@H](CN(C)C(=O)NC(C)C)O3)cc1	22	20

Carrying on:
SMILES	Vaccinia inh	Vaccinia inh Venus
O=C(NC1CCCCC1)N1CC2(C1)[C@H](c1ccccc1)[C@H](CO)N2CC1CC1	2	2
Cc1ccc(-c2ccc3c(c2)O[C@H](CN(C)C(=O)CC2CC2)[C@H](C)CN([C@H](C)CO)S3(=O)=O)cc1	?	.
COc1ccc(C[C@H]2CCc3cnnn3COC[C@H](CC(C)C)NC2=O)cc1	5	16
O=C(c1cccc(F)c1)N1CC(=O)N2[C@@H](CO)[C@@H](c3ccc(C#Cc4ccc(F)cc4)cc3)[C@@H]2C1	?	.
COc1ccccc1NC(=O)N1C[C@H]2[C@@H](c3ccccc31)[C@H](CO)N2C(=O)C1CC1	-23	2
C[C@@H]1CCCCO[C@@H](CN(C)S(=O)(=O)c2ccc(F)cc2)[C@H](C)CN([C@H](C)CO)C(=O)c2cc(NC(=O)CCC(F)(F)F)ccc2O1	?	.
C[C@@H]1CCCCO[C@H](CN(C)Cc2ccccc2)[C@H](C)CN([C@H](C)CO)C(=O)c2cc(NS(=O)(=O)c3ccc(F)cc3)ccc2O1	?	.
O=C(c1cnccn1)N1CC(=O)N2[C@H](CO)[C@@H](c3ccc(C#CCC4CCCC4)cc3)[C@@H]2C1	-28	-31
C[C@@H]1CCCCO[C@H](CN(C)C(=O)c2ccccc2)[C@@H](C)CN([C@@H](C)CO)C(=O)c2cc(NC(=O)Nc3cccc4ccccc34)ccc2O1	8	4
C[C@@H]1CN([C@H](C)CO)S(=O)(=O)c2ccc(/C=C/c3ccccc3)cc2O[C@H]1CN(C)C	-28	-22
C[C@@H]1CN([C@H](C)CO)C(=O)Cc2cc(NC(=O)CCC(F)(F)F)ccc2O[C@@H]1CN(C)C(=O)Nc1cccc2ccccc12	23	9
C[C@@H]1CN([C@H](C)CO)S(=O)(=O)c2ccc(C3=CCCCC3)cc2O[C@H]1CN(C)C(=O)C1CC1	-11	-7
OC[C@@H]1CC[C@@H]2O[C@H](CCc3ccc(C#Cc4ccccc4)cc3)[C@H](n3cc(-c4ccccc4)nn3)C[C@@H]2O1	-17	-9
COc1ccc(NC(=O)Nc2ccc3c(c2)C(=O)N([C@H](C)CO)C[C@@H](C)[C@H](CN(C)C(=O)Nc2ccc(F)cc2)O3)cc1	20	9
CO[C@@H]1CN(C)C(=O)c2cc(NC(=O)c3cc(C)on3)ccc2OC[C@@H](C)N(S(=O)(=O)c2cccc(F)c2)C[C@H]1C	-2	-6
C[C@@H]1CN([C@@H](C)CO)C(=O)c2cccc(NC(=O)C3CC3)c2O[C@H]1CN(C)Cc1ccccc1	7	4
C[C@@H]1CN([C@H](C)CO)C(=O)Cc2cc(NS(=O)(=O)c3cccs3)ccc2O[C@@H]1CN(C)S(=O)(=O)c1ccc(Cl)cc1	4	-10
C[C@@H]1CN([C@@H](C)CO)C(=O)c2cc(C#Cc3ccc(F)cc3)cnc2O[C@H]1CN(C)C(=O)Nc1ccc(F)cc1	?	.
C[C@@H]1CN([C@@H](C)CO)C(=O)Cc2cc(NS(C)(=O)=O)ccc2O[C@H]1CN(C)Cc1ccc(C(F)(F)F)cc1	-23	-22
N[C@@H]1CC[C@H](CCn2cc(C3CC3)nn2)O[C@@H]1CO	1	4
C[C@@H]1CCCCO[C@@H](CN(C)S(=O)(=O)c2ccc(F)cc2)[C@@H](C)CN([C@H](C)CO)C(=O)c2cc(NS(=O)(=O)c3cccs3)ccc2O1	14	6
COc1cccc(S(=O)(=O)Nc2ccc3c(c2)C(=O)N(C)C[C@H](OC)[C@H](C)CN(C(=O)Cc2cccnc2)[C@@H](C)CO3)c1	26	14
O=C(C1CCC1)N1CCCCN2[C@@H](CO)[C@H](c3ccc(-c4cccc(F)c4)cc3)[C@@H]2C1	-30	-29
COc1ccc(S(=O)(=O)N(C)C[C@@H]2Oc3ccc(N(C)C)cc3C(=O)N([C@H](C)CO)C[C@@H]2C)cc1	-12	-9
CN1CCN(C(=O)C[C@H]2CC[C@@H]3[C@H](COC[C@H](O)CN3C(=O)C3CCOCC3)O2)CC1	14	12
C[C@H]1CN([C@@H](C)CO)C(=O)Cc2cc(N(C)C)ccc2O[C@H]1CN(C)C(=O)Nc1ccc(F)cc1	15	7
O=C(C[C@@H]1C=C[C@@H](NC(=O)c2ccc3c(c2)OCO3)[C@@H](CO)O1)NCc1ccc(Cl)cc1	-3	-1
CC(C)C#Cc1cnc2c(c1)C(=O)N([C@H](C)CO)C[C@@H](C)[C@@H](CN(C)C(=O)Cc1ccncc1)O2	-6	-3
CC(C)C#Cc1cnc2c(c1)C(=O)N([C@@H](C)CO)C[C@H](C)[C@H](CN(C)C(=O)c1ccc3c(c1)OCO3)O2	12	1
COc1ccccc1-c1ccc(C2[C@H]3CNC[C@@H]2N3S(=O)(=O)c2ccc(F)cc2)cc1 (stereo partly drawn)	-5	17
C/C=C/c1ccc2c(c1)O[C@@H](CN(C)Cc1cncnc1)[C@@H](C)CN([C@H](C)CO)S2(=O)=O	-11	-12
CO[C@H]1CN(C)C(=O)c2cc(NS(C)(=O)=O)ccc2OC[C@H](C)N(C(=O)C2CCC2)C[C@@H]1C	6	9
O=C(Cc1ccncc1)N1CCCCN2[C@@H](CO)[C@@H](c3ccc(C#CC4(O)CCCC4)cc3)[C@@H]2C1	26	12
CCCNC(=O)C[C@H]1CC[C@@H]2[C@@H](COc3ccc(NC(=O)Nc4c(C)noc4C)cc3C(=O)N2C)O1	0	4
CCC(=O)Nc1ccc2c(c1)C(=O)N(C)C[C@@H](OC)[C@@H](C)CN(Cc1ccccc1F)[C@@H](C)CO2	-11	-2
COCC(=O)N[C@H]1C=C[C@H](CC(=O)N2CCCCC2)O[C@H]1CO	13	5
CNC[C@H]1Oc2cc(C#CCOC)ccc2S(=O)(=O)N([C@H](C)CO)C[C@@H]1C	3	8
CCS(=O)(=O)N1CCC2(CC1)CN(S(=O)(=O)c1ccccc1)[C@@H](CO)c1c2c2ccc(OC)cc2n1C	-15	-14
C[C@@H]1CN([C@@H](C)CO)S(=O)(=O)c2ccc(-c3cncnc3)cc2O[C@H]1CN(C)C(=O)c1cccc(F)c1	12	11
CCC(=O)Nc1ccc2c(c1)OC[C@H](C)N(C(=O)CN(C)C)C[C@@H](C)[C@H](OC)CN(C)C2=O	7	10
CCCC#Cc1cnc2c(c1)C(=O)N([C@@H](C)CO)C[C@H](C)[C@@H](CN(C)S(C)(=O)=O)O2	9	4
COCC(=O)Nc1ccc2c(c1)[C@H]1C[C@H](CC(=O)NCCc3ccccc3)O[C@@H](CO)[C@H]1O2	3	6
CC(=O)N(C)C[C@H]1[C@@H](c2ccc(-c3cccnc3)cc2)[C@@H](CO)N1C(=O)C1CC1	8	12
COCCNC(=O)C[C@H]1CC[C@@H]2[C@@H](COc3ccc(NC(=O)C4CCCC4)cc3C(=O)N2C)O1	6	6
COc1cccc(S(=O)(=O)Nc2ccc3c(c2)OC[C@H](C)NC[C@@H](C)[C@@H](OC)CN(C)C3=O)c1	4	6
CCCNC(=O)C[C@H]1CC[C@@H]2[C@H](COC[C@H](O)CN2C(=O)Nc2ccc(Cl)c(Cl)c2)O1	-9	-6
CNC[C@H]1Oc2cc(C#Cc3cccc(F)c3)ccc2S(=O)(=O)N([C@@H](C)CO)C[C@@H]1C	?	.
CN1C(=O)c2cc(NC(=O)C3CC3)ccc2OC[C@H]2O[C@@H](CC(=O)NCC3CCCCC3)CC[C@H]21	-4	-2
N#C[C@H]1[C@@H](c2ccc(C3=CCCCC3)cc2)[C@H](CO)N1S(=O)(=O)c1cccc(F)c1	-16	-15
COc1ccc(CN(C)C[C@H]2Oc3ccc(NS(=O)(=O)c4cccs4)cc3CC(=O)N([C@H](C)CO)C[C@H]2C)cc1	-2	-5
C[C@H](CO)N1C[C@H](C)[C@@H](CN(C)Cc2ccc(C(=O)O)cc2)OCc2cn(nn2)CCCC1=O	21	14
C[C@H](CO)N1C[C@H](C)[C@@H](CN(C)Cc2ccccc2)Oc2c(NS(=O)(=O)c3ccccc3)cccc2C1=O	6	-4
C/C=C/c1ccc([C@@H]2[C@H](CO)N(CC3CCCC3)C23CN(C(=O)CC2CC2)C3)cc1	-10	2
O=C(C[C@H]1CC[C@H]2[C@@H](COC[C@@H](O)CN2C(=O)c2ccc(F)cc2)O1)NCc1cccc(F)c1	-1	-1
COc1ccc(NC(=O)N(C)C[C@H]2Oc3ccc(NS(=O)(=O)c4cn(C)cn4)cc3CC(=O)N([C@H](C)CO)C[C@@H]2C)cc1	-1	-10
C[C@H]1CN([C@@H](C)CO)C(=O)c2cc(C#Cc3ccncc3)cnc2O[C@@H]1CN(C)CC1CCOCC1	11	15

The list is partial; rates above refer to the full screens.
